Screening results as filed in PubChem BioAssay.
Sa ugtP lethal: growth inhibition of ugtP-null S. aureus, primary screen, RN4220 ugtP deletion, OD600; 16 h; some inactives read as strong as hits; growth inhibition, % (concentration not given with the values); 330,000 tested, 0.54% active;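 active = z-score under -3 and OD600 up to 0.15 on both plates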;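 also: plate controls were untreated wells for no effect and antibiotic for full effect; wells of about 80 µL received 100 nL stock; the first replicate is given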
PrP UTR inh: inhibition of PrP 5' UTR reporter expression; inhibition, % (no concentration beside the values); 340,000 tested, 0.35% active; cell-based PrP 5' UTR mRNA reporter, plate reader; AID 488862, 2010;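 active = every replicate at 50% or more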;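 also: 0 = median of the neutral control wells; tested in H4 reporter cells; numbers are from one replicate; inactives centre near -14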
Bead autofluor: compound fluorescence in toxin protease inhibitor counterscreen | compound autofluorescence counterscreen, microsphere flow cytometry; hits give high values | fluorescence intensity (test concentration not listed) | 360,000 tested, 3.1% active;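 active = at least 3 SD above the mean of all compounds, about 16000 in these data; inconclusive = too few beads counted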;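 also: 100 nL of 1 mM stock went into each well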
RN4220 kill: growth inhibition of S. aureus RN4220, primary screen, OD600; 16 h; inhibition, % (test concentration not listed); 330,000 tested, 0.33% active; AID 1259311, 2017;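 active = z-score of -3 or lower and OD600 up to 0.18 on both plates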;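 also: plate controls were untreated cells for no effect and reference antibiotic for full effect; stock transfer was 100 nL into about 80 µL; one replicate is shown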
Mtb hypoxia rep: PubChem AID 1159583; M. tuberculosis hypoxia-regulated fluorescent reporter, fluorescence; 300,000 tested, 0.1% active; fluorescence inhibition, % (test concentration not listed);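 active = 35 to 45% if threefold the growth effect, above 45% if 1.5-fold the growth effect; inactive = the rest, general growth blockers included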;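 also: wells of about 50 µL received 100 nL stock; 0% = vehicle wells and 100% = reference inhibitor wells; whole bacteria with a GFP reporter of the hypoxia response; strong numbers were not always called active; many hits fall short of the cut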
BJeLR viability: MLPCN primary cell-based screen for lethality selective to Ras in HRASV12 cells. BJeLR (HRASV12) viability, CellTiter-Glo ATP luminescence, 48 h; reference of the scale not given here. inhibition, % (no concentration beside the values). 300,000 tested, 0.17% active. AID 1554, 2009;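 active = replicate mean above 50%; inconclusive = above 50% but judged a plate artefact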;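 also: 50 nL library stock added to about 25 µL; numbers are from one replicate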
Mtb hypoxia rep growth: also measured in Mtb hypoxia rep; calls as there; growth inhibition, %; measured here: M. tuberculosis growth (absorbance);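 0% = vehicle and 100% = reference antibiotic; read after six days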
Active calls of the source: *; ? = inconclusive; nt = not tested or not shown. Outcome played no part in choosing rows; any-hit rate near 4.1%.

SMILES	Sa ugtP lethal	PrP UTR inh	Bead autofluor	RN4220 kill	Mtb hypoxia rep	Mtb hypoxia rep growth	BJeLR viability
O=C(Nc1ccc(S(=O)(=O)Nc2ncccn2)cc1)C1CC(=O)N(c2ccccc2)C1 (stereo unspecified)	4.6	-8.4	6408	3.8	11.7	8.8	nt
CCCCC(=O)c1c(O)c2ccccc2oc1=O	0.4	-7.7	2851	33.0	-6.9	3.0	13.0
COc1ccc(/C=C/C(=O)c2ccccn2)cc1	-0.7	-48.7	4022	10.4	4.9	1.0	-2.8
O=C(CCNC(=O)c1ccc(Cl)cc1)Nc1ccccc1Cl	14.4	-9.8	3810	3.0	-0.6	7.5	-5.9
CN(C)CCCNS(=O)(=O)c1ccc(Cl)s1	4.9	-24.3	2521	5.7	10.6	3.4	-9.4
O=c1c(-c2ccc3c(c2)OCCO3)coc2c(CN3CCOCC3)c(O)ccc12	-6.9	-34.1	2667	3.5	7.4	4.5	2.1
CC(C)(C)SC(C(=O)N1CCOCC1)c1ccc(Br)cc1 (stereo unspecified)	3.7	-14.7	3835	1.5	7.6	0.2	-2.3
COc1ccc(NC(=O)CCCc2nc3ccccc3c(=O)[nH]2)cc1Cl	0.7	-9.1	3681	3.2	2.9	9.8	nt
Cc1ccccc1OCC(=O)NC(=S)Nc1ccc2c3c(cccc13)CC2	6.7	-7.7	3567	-3.3	17.2	12.7	8.0
O=C(Nc1ccc(Br)cc1F)c1sccc1-n1cccc1	5.9	-13.9	7907	7.4	-1.3	-3.4	1.1
Cc1cc(OCC(=O)OCC(=O)N(C)C2CCS(=O)(=O)C2)ccc1Cl (stereo unspecified)	4.9	-26.6	5664	2.0	1.9	5.4	nt
Nc1nc(N)c(N=Nc2ccc(Cl)cc2)c(=O)[nH]1	2.5	-43.0	3281	5.8	11.1	-0.8	0.7
CCCOC(=O)c1ccc(-[n+]2c(-c3ccccc3)cc(-c3ccccc3)cc2-c2ccccc2)cc1	100.5*	-29.8	3248	100.6*	nt	nt	10.9
Cc1cc(C(=O)Nc2ccc(Cl)cc2)c(C)n1-c1ccccc1	41.4	nt	3977	-10.7	5.4	1.6	-8.2
CCCCOc1ccc(/C=C/C(=O)NC2=Nc3ccccc3NC(C)=C2C(=O)OCC)cc1OC	nt	-40.6	3020	nt	nt	nt	0.2
Cc1ccc(Cn2ncc3c(N4CCN(Cc5ccc(Cl)cc5)CC4)ncnc32)cc1	-9.5	-19.3	8403	-11.7	-4.2	8.3	8.0
C=CCn1c(COc2ccc(OC)cc2)nnc1SCn1nnc2ccccc2c1=O	-3.0	-14.6	2093	2.1	5.7	9.2	-4.6
Cc1ccccc1C(=O)NC1CCN(Cc2nnnn2C2CCCC2)CC1	3.2	-6.8	6889	6.4	5.0	6.5	-2.2
CSc1nsc(SCC(=O)Nc2ccc(Cl)c(C(=O)O)c2)n1	12.1	-16.5	3321	3.2	-3.6	0.2	-12.2
c1ccc(C2NCCNC2c2ccccc2)cc1 (stereo unspecified)	6.0	-27.5	3694	2.6	2.3	6.6	nt
COCCCN1CN(Cc2ccccc2)CNC1=S	3.0	-8.9	2327	4.2	-1.9	-0.8	12.0
CCNc1nc(NCC)n2c(SCC(=O)NC34CC5CC(CC(C5)C3)C4)nnc2n1	2.4	-2.8	2154	2.4	-0.7	4.8	-5.9
Cc1cnc(C)c(N2CCN(C(=O)C3CCC(=O)N(CCc4cccc(F)c4)C3)CC2)n1 (stereo unspecified)	3.4	5.4	5653	-0.2	0.1	4.4	-4.7
COC(=O)c1ccc(NC(=O)CCN2C(=O)NC(C)(C)C2=O)cc1	1.6	-10.8	3702	3.9	2.5	10.2	nt
Cc1noc(C)c1CSCC(=O)N(C)CC(=O)Nc1ccc(Cl)c(C(F)(F)F)c1	3.1	-34.9	4851	1.4	-0.8	-0.5	2.0
COc1ccc(OC)c(S(=O)(=O)Nc2ccc(-c3ccc4nnc(C)n4n3)cc2)c1	9.0	-6.5	6177	3.6	12.7	-1.8	7.2
Cc1sc(-c2ccncc2)nc1OC(=O)c1ccc(Cl)cc1	6.9	-1.9	3420	3.9	5.7	3.6	-0.8
O=C(O)/C=C/c1cccc(NC(=O)c2ccccc2)c1	-5.6	1.8	?	-0.6	-11.0	2.9	16.2
Cc1c(Cl)cccc1NC(=O)CNC(=O)C1CC(=O)N(C2CCCC2)C1 (stereo unspecified)	2.9	-6.7	3886	1.6	-1.9	0.2	nt
O=C(O)c1cccc(-c2nnn(Cc3ccccc3Cl)n2)c1	6.3	-30.0	5351	1.6	nt	nt	-4.3

Compound profiles (already shown):
`Cc1c(Cl)cccc1NC(=O)CNC(=O)C1CC(=O)N(C2CCCC2)C1` (stereo unspecified) is listed as Sa ugtP lethal: 2.9; PrP UTR inh: -6.7; Bead autofluor: 3886; RN4220 kill: 1.6; Mtb hypoxia rep: -1.9; Mtb hypoxia rep growth: 0.2; BJeLR viability: nt
`O=C(Nc1ccc(S(=O)(=O)Nc2ncccn2)cc1)C1CC(=O)N(c2ccccc2)C1` (stereo unspecified) is listed as Sa ugtP lethal: 4.6; PrP UTR inh: -8.4; Bead autofluor: 6408; RN4220 kill: 3.8; Mtb hypoxia rep: 11.7; Mtb hypoxia rep growth: 8.8; BJeLR viability: nt

(further entries)
SMILES	Sa ugtP lethal	PrP UTR inh	Bead autofluor	RN4220 kill	Mtb hypoxia rep	Mtb hypoxia rep growth	BJeLR viability
Cc1ccc(C)c(NC(=O)CN(C)C(=O)c2ccc3[nH]c4c(c3c2)CC(C)CC4)c1 (stereo unspecified)	-0.2	-3.6	nt	-0.9	0.1	-3.0	-5.3
CC(C)(C)c1cc(C(=O)NN=Cc2ccncc2)n[nH]1	5.2	nt	nt	0.0	0.6	9.2	nt
O=C(CSc1nc(C2CC2)nc2ccccc12)Nc1ccc2c(c1)OCCO2	0.7	-14.7	10156	1.4	3.4	7.6	7.8
COc1ccc(/C=C2\SC(=O)N(CCNC(=O)Cn3cnnn3)C2=O)cc1	-2.8	-78.8	9880	-0.7	1.2	5.0	16.1
O=C(c1ccccc1)N(Cc1nc2ccccc2c(=O)[nH]1)C1CCCC1	-6.6	-61.5	4254	9.6	8.6	8.2	-6.3
COc1ccc(C2CC(c3cccc(Cl)c3)=NN2c2ccc(S(N)(=O)=O)cc2)cc1 (stereo unspecified)	-27.6	-5.9	4041	-13.2	1.2	4.7	nt
Nc1nnnn1/N=C/c1cccc(O)c1	nt	-25.7	2608	nt	nt	nt	1.8
CNC(=S)NC12CC3CC(CC(C3)C1)C2	1.9	6.1	4324	0.5	9.0	5.4	0.2
COc1cccc(NC(=O)c2ccccc2C(F)(F)F)c1	3.1	-93.5	3436	0.8	14.1	-3.0	7.1
COC(=O)Cc1c(C(=O)OC)nnn1-c1cccc(C(F)(F)F)c1	-4.8	-21.8	2663	4.4	-0.5	3.4	-5.6
O=C(Cc1cccs1)Nc1ccon1	6.0	-10.9	15845	2.7	9.8	-0.5	6.6
CCCCNC(=O)c1c(C)cc(=O)oc1C	0.9	-11.9	22316*	-0.7	6.1	10.4	10.7
CN=C(Nc1ccc(C(=O)OC)s1)c1ccccc1	0.9	-4.1	4852	1.0	-6.4	0.7	-0.9
CCOC(=O)C1=C(C)NC(C)=C(C(=O)OCC)C1C(=O)OCC(=O)NC(C)c1ccccc1 (stereo unspecified)	0.1	-30.4	5518	2.0	4.0	4.4	nt
Cn1ncnc1SCc1cn2cccnc2n1	3.3	-7.4	4908	4.7	2.2	-1.4	0.8
CCOc1cc(/C=N/NC(=O)C(=O)NCc2ccc3c(c2)OCO3)ccc1OCC(=O)N1CCOCC1	nt	-8.4	5992	nt	nt	nt	2.6
COC(=O)c1ccc(-n2nnnc2SCC(=O)Nc2cc(OC)ccc2OC)cc1	-5.1	-28.2	10387	9.0	0.1	0.3	0.4
COc1cccc2c1cc1c(=O)n(CC(=O)N3CCCCCC3)nc(C)n12	0.9	-7.2	5930	2.3	7.1	2.4	-3.0
CC(=O)c1ccc2c(ccc3ccccc32)c1	6.7	-50.8	3387	2.3	5.3	4.7	4.5
CCCCC(=O)NC(=S)Nc1nnn(CCC)n1	4.7	-46.6	3823	0.8	11.0	12.9	-2.5
COc1ccc(-c2n[nH]c3c2CN(C(=O)c2ccc(F)cc2)CC3)cc1	1.9	-6.9	5251	2.2	0.4	9.4	-2.6
CC(=O)NCCC1CCN(C(=O)C2CCC(=O)N(C3CCCC3)C2)CC1 (stereo unspecified)	-2.0	-13.4	6409	0.7	10.6	-6.1	-5.4
O=[N+]([O-])c1ccc(CS(=O)(=O)c2ncn[nH]2)cc1	6.0	-34.8	3476	3.4	6.9	-4.9	-7.1
CC(C)(C)c1ccc(-c2noc(C(=O)NN)n2)cc1	2.9	-18.2	nt	2.1	6.4	13.4	-5.0
CC(C)(C)OC(=O)N[C@@H](Cc1ccccc1)c1nnc(SCC(=O)c2ccc(Cl)cc2)o1	-7.5	-43.7	19238*	4.2	5.5	3.2	-8.7
O=C(c1cc(F)c(F)c(F)c1F)N1CCN(Cc2ccc3c(c2)OCO3)CC1	6.0	-26.2	3590	0.6	6.5	5.1	7.6
COc1ccc(NC(=O)c2nn(C34CC5CC(CC(C5)C3)C4)cc2[N+](=O)[O-])cc1	2.6	-20.6	2073	0.8	11.0	3.0	-2.3
c1ccc(-c2ccc(-c3ccncn3)cc2)cc1	-5.1	-73.2	4205	4.4	12.9	1.6	-1.7
O=C(CNC(=O)c1cccc(OC(F)F)c1)OCC(=O)c1ccccc1	3.5	-6.9	4683	1.0	14.1	8.0	-20.7
O=S(=O)(c1ccc(S(=O)(=O)N2CCCN(Cc3ccccc3)C2)cc1)N1CCCCCC1	0.8	-3.3	9728	1.7	7.0	13.0	-1.0

3 records drawn at random from those above:
SMILES	Sa ugtP lethal	PrP UTR inh	Bead autofluor	RN4220 kill	Mtb hypoxia rep	Mtb hypoxia rep growth	BJeLR viability
CC(=O)c1ccc2c(ccc3ccccc32)c1	6.7	-50.8	3387	2.3	5.3	4.7	4.5
Cn1ncnc1SCc1cn2cccnc2n1	3.3	-7.4	4908	4.7	2.2	-1.4	0.8
CCOC(=O)C1=C(C)NC(C)=C(C(=O)OCC)C1C(=O)OCC(=O)NC(C)c1ccccc1 (stereo unspecified)	0.1	-30.4	5518	2.0	4.0	4.4	nt

More compounds follow:
SMILES	Sa ugtP lethal	PrP UTR inh	Bead autofluor	RN4220 kill	Mtb hypoxia rep	Mtb hypoxia rep growth	BJeLR viability
c1ccc(N2CCN(CC3CCCCC3)CC2)cc1	3.6	-16.7	3466	-0.6	-4.2	-2.0	-2.6
CCn1ccnc1CNC(=O)CC1C(=O)NCCN1Cc1ccc(OC)cc1OC (stereo unspecified)	2.1	1.0	3358	4.8	9.0	1.5	-0.7
CCN1CCN(C(c2cc3cccc(C)c3[nH]c2=O)c2nnnn2Cc2ccccc2)CC1 (stereo unspecified)	9.5	8.8	4541	5.1	5.7	13.5	12.5
Cc1ccc(NC=C(C#N)c2ccsc2)cc1C	0.6	nt	nt	7.9	7.3	5.5	nt
CN(C)c1nc(N)c([N+](=O)[O-])c(N2CCCCCC2)n1	-0.5	-9.3	3903	0.8	-8.1	7.5	-11.1
CC1CCCCC12NC(=O)N(CC(=O)OCc1ccccc1F)C2=O (stereo unspecified)	-3.2	-13.4	3656	2.4	-25.7	6.1	nt
COc1cc2c(C(=O)N3CCN(c4ccccc4C)CC3)c(C)oc2cc1Br	-5.3	-18.9	3299	-9.7	15.8	3.3	10.3
C=CCN(CC=C)CC(=O)Nn1c(C)ccc1C	-3.3	-20.3	3320	2.4	3.0	6.1	nt
